TRPV1 potentiator – enhances activation of the human vanilloid receptor TRPV1. Q8NER1. TRPV1-expressing cells, Fluo-8 calcium influx, capsaicin EC20 potentiation; host cell line not named in the record; control for the full effect not named in the record. potentiation, % at 8.33 µM. 320,000 tested, 0.02% active; active means potentiation above 80%; inconclusive means 30% to 80%; inactive means below 30%; also: 0% is about no effect
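Fluo-8 calcium influx in TRPV1-expressing cells, kinetic read (ex 480/em 520 nm). Compound added and read 3 min for agonist activity, followed by capsaicin at EC20 final and 2 min further read for enhancement.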
D2 potentiator – positive allosteric modulators of human D2 dopamine receptor; P14416; DiscoveRx D2 beta-arrestin cells, luminescence, 90 min; 100% = 57 uM dopamine signal; potentiation, % (concentration not given with the values); 360,000 tested, 0.23% active; AID 624464; active = potentiation of 50% or more; inconclusive = 30% to 50%; inactive = 30% or less;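 also: compound concentration not given in the record; tested on top of an EC20 dose of dopamine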
Target sequence (P14416 whole entry, looked up): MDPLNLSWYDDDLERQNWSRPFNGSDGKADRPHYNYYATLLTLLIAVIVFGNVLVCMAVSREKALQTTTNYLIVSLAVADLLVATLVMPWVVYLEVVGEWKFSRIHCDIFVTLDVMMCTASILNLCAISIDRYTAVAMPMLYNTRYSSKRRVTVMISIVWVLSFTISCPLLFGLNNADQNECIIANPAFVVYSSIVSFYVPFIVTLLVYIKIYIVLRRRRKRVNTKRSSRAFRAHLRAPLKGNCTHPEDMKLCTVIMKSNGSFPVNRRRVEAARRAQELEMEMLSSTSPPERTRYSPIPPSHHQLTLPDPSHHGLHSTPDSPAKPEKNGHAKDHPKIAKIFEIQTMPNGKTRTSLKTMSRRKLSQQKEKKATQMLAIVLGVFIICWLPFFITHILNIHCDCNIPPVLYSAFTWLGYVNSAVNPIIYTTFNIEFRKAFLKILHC
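PathHunter D2 cells, attached overnight at 37 deg C, received compound in DMSO plus dopamine at EC20 (50 nM final) for 90 min at 37 deg C. Beta-arrestin recruitment was read as luminescence after 1 h with detection reagent at ambient temperature.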
Six1-Eya2 blk – blocks human Six1 binding to Eya2 | AlphaScreen GST-Six1/His-Eya2 binding, biochemical; active compounds read low; control for the full effect not named in the record | activity change, % (concentration not given with the values) | 360,000 tested, 0.56% active | AID 651725; in the data active = activity change below about -65%; inconclusive = about -30% to -65%; inactive = above about -30%; also: % is scaled to controls: 0 for no effect and ±100 for the full control effect
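Six1/Eya2 binding was read as AlphaScreen signal after compounds were pinned into GST-Six1 plus His-tagged Eya2 (5X stock 250/500 nM) in pH 8.0 Tris/NaCl/TCEP buffer, beads added, then incubated 1 h, 37 C, dark.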
TRPML1 ag – activates the human TRPML1 channel; Q9GZU1; TRPML1-expressing cells, Ca2+ dye fluorescence, FDSS; host cell line not named in the record; reference of the full effect not given here; activation, % (test concentration not listed); 410,000 tested, 0.12% active; AID 624414; in the data active = activation above about 50%; inconclusive = about 30% to 50%; inactive = below about 30%; also: 0% is about no effect; the text of the record puts the active cut at 80%
Target sequence (Q9GZU1 whole entry, looked up): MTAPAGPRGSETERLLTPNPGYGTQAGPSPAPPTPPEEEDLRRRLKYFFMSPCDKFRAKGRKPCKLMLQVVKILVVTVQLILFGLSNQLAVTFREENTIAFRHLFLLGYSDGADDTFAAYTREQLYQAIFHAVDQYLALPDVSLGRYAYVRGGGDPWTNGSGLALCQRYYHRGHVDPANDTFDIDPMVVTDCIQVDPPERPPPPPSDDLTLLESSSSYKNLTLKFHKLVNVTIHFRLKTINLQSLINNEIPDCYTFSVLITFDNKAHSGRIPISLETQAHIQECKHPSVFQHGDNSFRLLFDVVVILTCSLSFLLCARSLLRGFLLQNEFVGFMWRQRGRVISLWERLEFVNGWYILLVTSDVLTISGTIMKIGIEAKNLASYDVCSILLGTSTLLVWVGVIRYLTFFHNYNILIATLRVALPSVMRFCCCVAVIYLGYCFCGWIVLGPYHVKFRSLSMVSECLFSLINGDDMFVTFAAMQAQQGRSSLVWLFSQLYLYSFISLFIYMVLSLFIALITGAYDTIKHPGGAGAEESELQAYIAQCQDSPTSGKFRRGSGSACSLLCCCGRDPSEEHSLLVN
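Tet-induced TRPML1-DL cells, 1,500 per well, cultured overnight, were loaded with a no-wash Ca2+ dye for 45–90 min. Calcium fluorescence was recorded on the FDSS for 110 s after compound addition, before the EC80 agonist (4 uM 54-4) was added.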
CtBP-E1A inh – CtBP/E1A binding inhibition; AlphaScreen GST-E1A/His-CtBP binding, 1536-well; active compounds read low; control for the full effect not named in the record; activity change, % (test concentration not listed); 340,000 tested, 0.49% active; in the data active means activity change below about -65%; inconclusive means about -30% to -65%; inactive means above about -30%; also: % is scaled to controls: 0 for no effect and ±100 for the full control effect
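GST-E1A and His-tagged CtBP (125 nM each as 5X stock) were preincubated with pin-transferred compound for 2 h at 37 °C in the dark, then glutathione donor and nickel acceptor beads were added for 1 h before AlphaScreen reading.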
TRPML1 blocker – blocks the human TRPML1 channel. TRPML1-inducible cells, Ca2+ dye fluorescence, FDSS; active compounds read low; inhibition of EC80 agonist-evoked calcium signal. 390,000 tested, 0.02% active. activity change, negative = inhibition, % (test concentration not listed). Q9GZU1; in the data active means activity change below about -50%; inconclusive means about -30% to -50%; inactive means above about -30%;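 also: stimulus is agonist 54-4 at its EC80 concentration; % is scaled to controls: 0 for no effect and ±100 for the full control effect; compound concentration not given in the record; the text of the record puts the active cut at -80%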
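Tet-induced TRPML1-DL cells loaded with Ca8 no-wash calcium dye were read kinetically on FDSS. Compound addition was followed by EC80 agonist 54-4 (4 uM final); inhibition was read over 110 s.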
* = called active by the depositor; ? = inconclusive; / = not tested or not shown; & = joins results of further samples.

item	molecule	Six1-Eya2 blk	D2 potentiator	TRPV1 potentiator	TRPML1 ag	CtBP-E1A inh	TRPML1 blocker
1	CCOC(=O)CC1C(=O)NCCN1C(=O)NC1CCCCC1 (stereo not drawn)	5	-17	-2	0.4	-4	24
2	Cc1nn(C)c(Cl)c1NC(=O)OCc1ccccc1	4	0	-13	-0.4	0	2
3	O=C(O)c1ccc(C2(c3ccc(C(=O)O)cc3)OC(=O)c3ccccc32)cc1	10	-3	12	-0.3	0	3
4	CCOC(=O)c1c(NS(C)(=O)=O)sc2c1CCC(C)C2 (stereo not drawn)	2	-4	4	-0.3	4	-18
5	Cc1ccc(-n2ncc3c(=O)n(CC(=O)N(C(C)C)C(C)C)cnc32)cc1	4	-3	14	-0.4	/	8
6	COc1ccc(N2CCn3c2nc2c3c(=O)n(CCCc3ccccc3)c(=O)n2C)c(OC)c1	-1	8	-8	2.0	-1	15
7	Cc1cccc(C)c1NC(=O)C(=O)NCCOc1ccc(Cl)cc1	8	10	3	4.8	9	2
8	Cc1nc2n(n1)CC(O)CS2 (stereo not drawn)	5	-1	3	-0.2	-4	4
9	CN(c1ccc(OCC(=O)OCc2nnc(-c3ccccc3)o2)cc1)S(=O)(=O)c1ccc(Cl)cc1	-3	-8	-1	1.1	4	12
10	O=C(Nc1ccccc1N1CCOCC1)c1ccc2c(c1)OCCO2	1	-8	-10	-0.5	3	5
11	C/C(=N\NC(=O)CCc1ccccc1)c1ccc(Br)cc1	5	-5	-11	3.7	5	53
12	CCN(CC)C(=O)CSc1nc2cc(S(=O)(=O)N3CCOCC3)ccc2n1CC	2	-12	-14	0.0	0	7
13	COc1ccc(-c2nsc(SCC(=O)NCC3CCCO3)n2)cc1 (stereo not drawn)	3	0	14	-0.1	-1	9
14	CSc1ccccc1NC(=O)CN(c1cccc(C)c1)S(C)(=O)=O	24	-2	-5	1.8	49	-2
15	Cc1cc(C(=O)O)c(CSc2ncn[nH]2)o1	7	-12	6	-0.7	-2	9
16	Cc1nc(CCNC(=O)COc2ccccc2)cs1	4	-5	6	-0.3	4	28
17	Cc1ncsc1CCC(=O)N1CCCC(C(=O)c2cccc(Cl)c2)C1 (stereo not drawn)	1	-8	-23	-0.3	/	5
18	CSc1ccc(C2CC(=O)Nc3c2c(=O)n(C)c(=O)n3C)cc1 (stereo not drawn)	1	-7	0	/	2	/
19	COc1ccc(CC(=O)Nc2ccc(NC(=O)c3ccccc3F)cc2)cc1	8	-12	2	0.3	/	-3
20	O=[N+]([O-])c1cc(/C=N/OCc2c(Cl)cccc2Cl)ccc1N1CCOCC1	?	-11	0	-0.6	?	2
21	Cc1ccc(CSc2nnc(C)c(=O)n2N)cc1	6	-18	-11	0.8	4	14
22	c1ccc2c(c1)OCC(c1nnc3n1-c1ccccc1SC3)O2 (stereo not drawn)	-6	10	3	-1.1	-1	-7
23	CC12CCC(C(=O)NCc3ccc(Cl)cc3)(OC1=O)C2(C)C (stereo not drawn)	5	-5	-17	2.4	3	3
24	Cc1sc2nc(C)n(/N=C/N(C)C)c(=O)c2c1C	8	-1	-13	2.0	2	11
25	O=C(Nc1ccc(O)c(-c2nc3ccccc3o2)c1)C1(c2ccc(Br)cc2)CCCC1	3	-4	2	-0.2	2	9

Three structures out of the list, ordered by heavy-atom count, lowest first.
item	molecule	Six1-Eya2 blk	D2 potentiator	TRPV1 potentiator	TRPML1 ag	CtBP-E1A inh	TRPML1 blocker
8	Cc1nc2n(n1)CC(O)CS2 (stereo not drawn)	5	-1	3	-0.2	-4	4
23	CC12CCC(C(=O)NCc3ccc(Cl)cc3)(OC1=O)C2(C)C (stereo not drawn)	5	-5	-17	2.4	3	3
22	c1ccc2c(c1)OCC(c1nnc3n1-c1ccccc1SC3)O2 (stereo not drawn)	-6	10	3	-1.1	-1	-7

(listing goes on)
item	molecule	Six1-Eya2 blk	D2 potentiator	TRPV1 potentiator	TRPML1 ag	CtBP-E1A inh	TRPML1 blocker
26	COc1cc(NC(=O)COc2ccc([N+](=O)[O-])cc2)ccc1NC(=O)c1ccco1	2	-11	/	-0.5	4	8
27	CC(=O)Nc1sc2c(c1C(N)=O)CCCC2	-2	?	3	2.0	1	-11
28	C=CCn1c(N)cc(=O)nc1SCC(=O)N(c1ccccc1)c1ccccc1	0	-16	1	-0.1	-12	-8
29	COc1ccc(S(=O)(=O)N2CC(O)CC2C(=O)OCc2nc3sc(C)c(C)c3c(=O)[nH]2)cc1 (stereo not drawn)	-18	-16	0	1.7	10	4
30	CC(C)CCNC(=O)c1ccc2nc[nH]c2c1	-4	10	5	0.1	16	12
31	O=C(CSCc1c(Cl)cccc1Cl)Nc1ccc2c(c1)OCO2	-3	-9	-19	3.0	-5	4
32	O=C(O)C1CC(=O)N(Cc2cccnc2)C1 (stereo not drawn)	-4	8	13	-0.1	-9	-6
33	COc1ccc(C(=O)NCc2ccc3c(c2)cc(C)n3C)cc1	-14	-5	-16	0.1	-4	12
34	CCOC(=O)c1c(N2C(=O)C3C4C=CC(O4)C3C2=O)sc2c1CCCC2 (stereo not drawn)	-3	-34	5	0.7	-3	-5
35	COc1ccccc1-c1cc(C(F)(F)F)nc(S(=O)(=O)CCCC(=O)Nc2cc(C)on2)n1	-1	-12	-4	-0.2	5	-6
36	CC1=NNC(=O)C1CC(=O)N/N=C/C(Br)=C/c1ccccc1 (stereo not drawn)	2	-3	-1	0.4	/	4
37	CCc1nnc(SCC(=O)Nc2ccccc2)nc1CC	-2	-7	2	2.6	4	30
38	COc1ccc(CNC(=O)COC(=O)c2c(NC(C)=O)sc(C)c2C)cc1	1	-1	-3	-0.5	7	14
39	CC(C)[C@H](NC(=O)c1ccco1)C(=O)OCC(=O)Nc1ccc(Cl)c(S(=O)(=O)N(C)C)c1	13	3	5	0.1	2	3
40	COCC(=O)N1CCCC(C(=O)c2ccc3c4c(cccc24)CC3)C1 (stereo not drawn)	8	-11	8	-0.4	/	-11
41	O=C1NC(=Nc2ccccc2Cl)SC1(CO)CO	2	-1	-12	0.2	3	6
42	COc1cccc(CN(C)C(=O)CNC(=O)c2sc3ccccc3c2Cl)c1OC	-10	8	4	1.5	-24	1
43	CCn1c(=N)c(S(=O)(=O)c2ccc(F)cc2)cc2c(=O)n3ccccc3nc21	-16	19	-23	-0.8	-2	3
44	C=CC[C@@H](CC(=O)N[C@H](CO)Cc1ccccc1)C(=O)N[C@@H](COC(=O)[C@@H](CC=C)Cc1ccc(F)cc1)Cc1ccccc1	1	/	/	0.1	2	24
45	COc1ccc(NC2CCCN(C(=O)CCc3ccncc3)C2)cc1OC (stereo not drawn)	0	-4	-3	0.7	6	50
46	CN1CCN(C(=O)c2cnn3c2NC(c2ccccc2)CC3C(F)(F)F)CC1 (stereo not drawn)	0	26	?	0.2	4	31
47	O=C(COc1ncnc2c(Cl)cc(Cl)cc12)N1CCCCC1	6	0	-1	-0.2	6	0
48	CC(C)(C)C(=O)NC1CC2CCCC(C1)N2C(=O)Nc1ccc(Cl)cc1 (stereo not drawn)	-7	-19	-9	-1.4	-2	-8
49	COC(=O)CSc1nc(N2CCCCC2)c2c(c1C#N)CCCC2	8	3	-8	-1.2	11	2
50	O=C(CN1C(=O)NC2(CCCCCC2)C1=O)N1CCC(Cc2ccccc2)CC1	2	-3	0	0.2	-4	-18

Some of the entries above, set out differently.
Order of results – Six1-Eya2 blk	D2 potentiator	TRPV1 potentiator	TRPML1 ag	CtBP-E1A inh	TRPML1 blocker
(39) CC(C)[C@H](NC(=O)c1ccco1)C(=O)OCC(=O)Nc1ccc(Cl)c(S(=O)(=O)N(C)C)c1
  13	3	5	0.1	2	3
(40) COCC(=O)N1CCCC(C(=O)c2ccc3c4c(cccc24)CC3)C1 (stereo not drawn)
  8	-11	8	-0.4	/	-11
(41) O=C1NC(=Nc2ccccc2Cl)SC1(CO)CO
  2	-1	-12	0.2	3	6
(42) COc1cccc(CN(C)C(=O)CNC(=O)c2sc3ccccc3c2Cl)c1OC
  -10	8	4	1.5	-24	1
(43) CCn1c(=N)c(S(=O)(=O)c2ccc(F)cc2)cc2c(=O)n3ccccc3nc21
  -16	19	-23	-0.8	-2	3
(44) C=CC[C@@H](CC(=O)N[C@H](CO)Cc1ccccc1)C(=O)N[C@@H](COC(=O)[C@@H](CC=C)Cc1ccc(F)cc1)Cc1ccccc1
  1	/	/	0.1	2	24
(45) COc1ccc(NC2CCCN(C(=O)CCc3ccncc3)C2)cc1OC (stereo not drawn)
  0	-4	-3	0.7	6	50
(46) CN1CCN(C(=O)c2cnn3c2NC(c2ccccc2)CC3C(F)(F)F)CC1 (stereo not drawn)
  0	26	?	0.2	4	31
(47) O=C(COc1ncnc2c(Cl)cc(Cl)cc12)N1CCCCC1
  6	0	-1	-0.2	6	0
(48) CC(C)(C)C(=O)NC1CC2CCCC(C1)N2C(=O)Nc1ccc(Cl)cc1 (stereo not drawn)
  -7	-19	-9	-1.4	-2	-8
(49) COC(=O)CSc1nc(N2CCCCC2)c2c(c1C#N)CCCC2
  8	3	-8	-1.2	11	2
(50) O=C(CN1C(=O)NC2(CCCCCC2)C1=O)N1CCC(Cc2ccccc2)CC1
  2	-3	0	0.2	-4	-18

Next section:
item	molecule	Six1-Eya2 blk	D2 potentiator	TRPV1 potentiator	TRPML1 ag	CtBP-E1A inh	TRPML1 blocker
51	C[C@H]1CN([C@@H](C)CO)C(=O)CCCn2cc(nn2)CO[C@@H]1CN(C)C(=O)c1ccncc1	18	3	/	-0.2	25	10
52	Cc1ccc(C)c(NC(=O)c2cc([N+](=O)[O-])cc([N+](=O)[O-])c2)c1	-6	16	5	-1.0	0	-1
53	Cc1nnc(NCc2cccc(Cl)c2)c2ccccc12	1	-13	-18	0.0	-8	-4
54	Cn1c(-c2ccc(Br)cc2)cnc1NCc1ccc(C#N)cc1	-14	-6	-4	0.0	0	-27
55	Clc1ccc(-n2cnnn2)cc1	3	-1	3	-0.6	-19	-17
56	COc1ccc(C2=Nc3nc(-c4ccccc4)cn3C(c3ccc(OC)cc3)C2)cc1 (stereo not drawn)	-1	-4	15	0.2	/	16
57	COc1ccc(C(=O)CCC(=O)N2CCN(c3ccc(N4CCOCC4)nn3)CC2)cc1	4	-3	-5	-0.2	5	-2
58	NC(=S)N/N=C1\CC(c2ccc3c(c2)OCCO3)Oc2ccc(F)cc21 (stereo not drawn)	-14	-3	-6	3.9	-11	16
59	Cc1cccc(N2CCN(S(=O)(=O)c3ccc4c(c3)CCCN4C(=O)C3CCC3)CC2)c1C	-12	-2	2	0.0&0.5	-8	11&17
60	Cc1nnsc1C(=O)Nc1cccc(Cl)c1C	-10	5	-23	1.7	8	12
61	CCOC(=O)Cc1csc(NC(=S)NC(=O)c2cccc([N+](=O)[O-])c2)n1	-21	-5	8	-0.7	-4	3
62	O=C(c1cccc(S(=O)(=O)N2CCCCC2)c1)N1CCN(c2ccccc2)CC1	-6	-17	-7	0.4	-3	-3
63	COC(=O)C1=C(N)Oc2cc(C)[nH]c(=O)c2C1c1cccnc1 (stereo not drawn)	4	4	-1	-0.5	5	3
64	CCOc1ccc(N(C(=O)c2snc(C(N)=O)c2N)C(C(=O)NC2CCCC2)c2ccncc2)cc1 (stereo not drawn)	7	-6	0	1.3	3	8
65	COc1cccc(Nc2nc(-c3cccnc3)cs2)c1	-17	-4	0	1.4	-1	9
66	O=C(O)C1CN(C(=O)c2ccccc2)c2cc(Cl)ccc2O1 (stereo not drawn)	3	-4	-2	0.4	9	1

Compounds were not picked by outcome; overall some 0.95% were active at least once.
